# CSC inhib: blocks cancer stem cells. inhibition, % at 7.5 µM. cancer stem cell-like cells viability, luminescence. 300,000 tested, 1.1% active;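 active means mean at 75% or more and at least half the replicates too; inconclusive means mean and replicates disagree; tested in HMLE shEcad cells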;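 further: 0% = median of negative and 100% = median of positive control wells; the first replicate is given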
# Rce1 inhib: yeast Ras-converting enzyme inhibition. AID 2563. 290,000 tested, 0.27% active. yeast membranes, quenched prenylated peptide cleavage fluorescence. calls only. Q03530;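 active means fall in fluorescence gain of 50% or more versus controls, with final raw signal at or below 3038400; inconclusive means same 50% fall but final raw signal above 3038400; inactive means fall in fluorescence gain under 50%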;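 further: plate controls were neutral control wells for no effect and wells lacking membranes for full effect; tested at 10 µM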
# Target sequence (Q03530 whole entry, looked up): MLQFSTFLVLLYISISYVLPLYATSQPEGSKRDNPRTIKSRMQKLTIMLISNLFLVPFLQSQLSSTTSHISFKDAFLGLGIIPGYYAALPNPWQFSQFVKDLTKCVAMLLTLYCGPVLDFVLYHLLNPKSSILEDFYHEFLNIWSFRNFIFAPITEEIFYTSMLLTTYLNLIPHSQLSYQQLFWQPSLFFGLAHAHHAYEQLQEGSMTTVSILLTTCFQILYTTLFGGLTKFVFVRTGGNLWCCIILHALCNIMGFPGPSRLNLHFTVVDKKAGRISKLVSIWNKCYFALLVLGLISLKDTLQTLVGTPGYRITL
# eIF4H inh: inhibitors of RNA binding by human eIF4H; inhibition, % at 35 µM; eIF4H fluorescence polarization binding assay; 290,000 tested, 0.94% active; Q15056;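 active means 50% or more with normal probe brightness, or confirmed in later tests; inconclusive means above 50% with abnormal brightness, or retests that disagree; inactive means below 50% or failed in later tests; about a fifth of its hits are not listed in these tables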;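 further: calls also rest on retests at 20 µM and on dose response follow-up; 0% = protein and probe with vehicle and 100% = probe without protein; strong numbers were not always called active; many hits fall short of the cut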
# MT1-MMP act inh: MT1-MMP (human) activation inhibition; P50281; HT1080 RFP-PRO-GFP cells, GFP/RFP ratio fluorescence, overnight; percent of plate control window, DMSO zero; GFP/RFP ratio change, % at 20 µM; 360,000 tested, 0.061% active;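 active means GFP/RFP ratio change of at least 30% with cell ATP level not reduced by more than half and red fluorescence within 50% of control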; further: strong numbers were not always called active
#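 Assay system: HT1080 RFP-PRO-GFP cells | Dosing: 20 µM single dose, 1% DMSO | Incubation: Cells overnight before dosing, compound overnight, 37 °C, 5% CO2 | Evaluation: GFP/RFP fluorescence ratio | Control set: DMSO-only wells and HT1080 RFP-L50D-GFP cell wells as references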
# Env fusion inh: HIV envelope-mediated fusion inhibition. AID 651610. 360,000 tested, 1.1% active. HeLa-JRFL Env/CEM21 cell fusion, luciferase. inhibition, % at 12.3 µM;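 active means mean replicate inhibition score of at least 50 and every replicate individually at or above 50; inconclusive means only one of the two criteria met; inactive means mean below 50 and not all replicates reaching 50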;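 further: 0% = plate neutral controls and 100% = maraviroc near 300 nM; one replicate is shown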
# PABP FP inh: blocks human PABP binding to poly(A) RNA | fluorescence polarization | inhibition, % at 35 µM | 290,000 tested, 1% active;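 active means 50% or more with normal probe brightness, or confirmed in later tests; inconclusive means above 50% with abnormal brightness, or retests that disagree; inactive means below 50% or failed in later tests; about a fifth of its hits are not listed in these tables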;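 further: calls also rest on retests at 20 µM and on dose response follow-up; controls were probe without protein and protein plus probe with vehicle; some compounds called inactive have numbers as strong as hits; many hits fall short of the cut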
# Target sequence (P11940 whole entry, looked up): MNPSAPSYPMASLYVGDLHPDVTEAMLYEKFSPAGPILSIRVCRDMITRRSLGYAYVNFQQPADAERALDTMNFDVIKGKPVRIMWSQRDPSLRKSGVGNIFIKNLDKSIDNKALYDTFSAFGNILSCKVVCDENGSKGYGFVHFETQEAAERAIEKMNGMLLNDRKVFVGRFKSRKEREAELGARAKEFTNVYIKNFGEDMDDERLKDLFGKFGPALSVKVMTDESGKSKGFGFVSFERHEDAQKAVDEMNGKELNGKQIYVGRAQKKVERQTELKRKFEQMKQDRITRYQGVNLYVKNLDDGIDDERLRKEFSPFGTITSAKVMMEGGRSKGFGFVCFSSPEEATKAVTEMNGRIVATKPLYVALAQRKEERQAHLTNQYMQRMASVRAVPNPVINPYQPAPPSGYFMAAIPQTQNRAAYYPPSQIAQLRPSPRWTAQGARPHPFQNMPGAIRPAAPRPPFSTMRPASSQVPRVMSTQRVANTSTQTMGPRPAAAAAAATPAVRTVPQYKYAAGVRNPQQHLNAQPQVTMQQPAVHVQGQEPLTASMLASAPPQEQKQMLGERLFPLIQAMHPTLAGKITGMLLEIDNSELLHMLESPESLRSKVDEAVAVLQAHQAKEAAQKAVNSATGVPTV
# Yeast UUG start: modulators of start codon recognition fidelity in yeast; activity score, % at 18.7 µM; S. cerevisiae UUG-firefly luciferase reporter, luminescence/redox ratio; 350,000 tested, 0.13% active;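 active means replicate mean at a twofold rise or more, about +100% in these data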;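 further: firefly luciferase made from a UUG start codon reports start codon fidelity; reporter light over untreated wells divided by growth signal over untreated wells; some hits fall short of that in this replicate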
# MT1-MMP act inh RFP: second read-out of MT1-MMP act inh, no call of its own (marks repeat the call); RFP signal change, %; measured here: RFP expression control read;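 0 = vehicle wells; hits needed this value within 50% of zero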
# * hit, by the source's call; i = inactive; u = inconclusive; x = no result given. An excerpt; rates above refer to the full screens.
# Value order – CSC inhib	Rce1 inhib	eIF4H inh	MT1-MMP act inh	MT1-MMP act inh RFP	Env fusion inh	PABP FP inh	Yeast UUG start
- COc1ccc(-c2nc(CS(=O)CC(=O)NCc3cccnc3)c(C)o2)cc1 (stereo not given)
    0.5	i	-12.7	2.1	5.3	23.0	-1.9	-13.9
- CN(Cc1nccn1C)C(=O)CC1C(=O)NCCN1CC(c1ccccc1)c1ccccc1 (stereo not given)
    8.3	i	-5.2	0.9	7.7	-1.9	-0.1	x
- CCCOc1ccc(CCCN=C(N)N)cc1Cl
    50.4	i	-6.4	-8.1	-20.9	14.6	0.1	-5.3
- Cc1cc(NS(=O)(=O)c2cccc([N+](=O)[O-])c2)no1
    x	i	5.3	4.5	5.0	-8.4	5.2	-39.4
- Cc1ccc(N(CC(=O)O)S(C)(=O)=O)cc1
    -5.4	i	-4.4	-1.3	0.8	23.0	-1.2	x
- COc1ccc(C(=O)CC(c2ccccc2)S(=O)(=O)c2ccc(C)cc2)cc1 (stereo not given)
    -6.7	i	3.8	x	x	x	-7.4	x
- O=C(O)CCCc1nc(-c2ccc(Cl)cc2)no1
    15.0	i	8.4	-1.3	2.4	16.5	5.4	-38.6
- COc1ccc(C(C(=O)NC2CCCC2)N(Cc2ccc(C)cc2)C(=O)c2ccn[nH]2)cc1OC (stereo not given)
    x	i	-8.8	0.3	6.3	x	0.1	7.4
- COC(=O)N/N=C/c1ccc(Oc2ccccc2)cc1
    -0.6	i	-13.5	-3.4	2.2	-34.7	-2.3	x
- CCN(CC)C(=O)Oc1ccc2c(c1)O/C(=C\c1ccco1)C2=O
    -13.3	i	34.9	-4.8	-1.4	-3.3	12.8	-10.8
- CN(C)S(=O)(=O)c1cccc(C(=O)Nc2ccc(C(=O)Nc3cccc(S(N)(=O)=O)c3)cc2)c1
    -14.1	x	x	0.9	2.5	19.3	x	23.6
- C=CCn1c(-c2cccn(Cc3cccc(Cl)c3)c2=O)n[nH]c1=S
    -8.6	i	-0.8	0.9	-2.6	-4.0	-6.2	-18.2
- COc1ccccc1C(=O)NCCNC(=O)c1ccc(C)nc1
    -7.5	i	3.0	-1.0	2.7	2.3	2.0	-16.3
- O=C(CSc1nc2ccccc2c(=O)n1-c1ccccc1)c1cccc([N+](=O)[O-])c1
    5.7	i	x	-1.6	-6.9	-2.2	x	-7.1
- CC(C)Cn1nc(NC(=O)C(C)(C)C)c2cc3ccccc3nc21
    -24.8	i	8.4	-0.9	1.0	-47.7	19.1	x
- O=C(CC[C@H]1O[C@@H](n2ccc(=O)[nH]c2=O)[C@H](O)[C@@H]1O)N[C@@H](Cc1ccccc1)C(=O)NCC1CCCO1 (stereo not given in full)
    x	x	x	-0.4	3.4	12.6	x	8.7
- COc1ccc(CN(C(=O)c2snc(C(N)=O)c2N)C(C(=O)NC(C)(C)C)c2ccco2)cc1 (stereo not given)
    x	i	-2.1	-3.5	-9.1	x	1.7	x
- CCCc1cc(=O)n2[nH]c(-c3cccc(Br)c3)cc2n1
    -2.9	i	0.5	2.9	-3.8	-93.8	14.2	-22.5
- CCCc1cc(=O)[nH]c(SCC(=O)Nc2ccc(Br)cc2Br)n1
    -5.7	i	-13.6	0.4	-0.2	6.9	13.1	x
- CC(C)(C)C(=O)NC(Nc1cccc2cccnc12)C(Cl)(Cl)Cl (stereo not given)
    x	i	-0.5	-14.6	-15.1	x	8.1	-14.9

# Among those listed so far, 2 contain an aryl thioether with sulfur outside any ring:
# Value order – CSC inhib	Rce1 inhib	eIF4H inh	MT1-MMP act inh	MT1-MMP act inh RFP	Env fusion inh	PABP FP inh	Yeast UUG start
- O=C(CSc1nc2ccccc2c(=O)n1-c1ccccc1)c1cccc([N+](=O)[O-])c1
    5.7	i	x	-1.6	-6.9	-2.2	x	-7.1
- CCCc1cc(=O)[nH]c(SCC(=O)Nc2ccc(Br)cc2Br)n1
    -5.7	i	-13.6	0.4	-0.2	6.9	13.1	x

# (list continues)
# Value order – CSC inhib	Rce1 inhib	eIF4H inh	MT1-MMP act inh	MT1-MMP act inh RFP	Env fusion inh	PABP FP inh	Yeast UUG start
- NC(=S)N/N=C1\CCSc2ccc(Cl)cc21
    -1.3	i	-8.5	-1.2	-14.5	10.0	3.4	-6.9
- CS(=O)(=O)c1cnc2c(-c3ccsc3)cnn2c1N
    0.1	i	-2.9	1.9	-1.5	-13.8	4.6	x
- Cc1cn([C@H]2C[C@H](O)[C@@H](CNCC3=Cc4cc(O)ccc4OC3)O2)c(=O)[nH]c1=O
    x	x	x	0.1	3.6	-3.3	x	-7.3
- CC(CN1CCOCC1)OC(=O)c1cccc(Cl)c1 (stereo not given)
    -1.9	i	1.4	1.0	1.3	-10.9	-7.9	-15.5
- Cc1ccccc1C(=O)c1c[nH]c(C(=O)N2CCN(c3ccccc3F)CC2)c1
    15.7	i	-1.5	-2.6	-6.1	33.5	-3.6	-17.6
- Cc1ccc(-n2cc(CCCCCCCCC(=O)O)nn2)cc1
    4.0	i	-9.3	12.6	5.1	-17.7	-2.0	-4.4
- CC(C)(C)N(Cc1ccccc1)C(=O)COC(=O)C1CC1
    -7.6	x	x	-4.7	3.7	1.3	x	-13.8
- COc1cccc(C2CCCCN2Cc2nc(-c3ccc(C)o3)oc2C)c1 (stereo not given)
    -14.9	i	-9.0	-4.3	3.3	15.9	-6.7	7.2
- COCc1cc(C)nc2sc3c(=O)n(-c4cccc5ccccc45)nnc3c12
    -7.1	i	-4.7	3.5	0.3	-116.1	2.9	-15.7
- CCOCCCNC(=O)C1(O)c2cc(Br)ccc2NC(=O)N1c1ccc(CC)cc1 (stereo not given)
    -23.2	i	-8.9	-3.0	0.1	-9.2	2.3	-14.3
- C=C1C(=O)O[C@@H]2[C@H]1CC[C@H](C)[C@]1(O)CCC(=O)[C@@]21C
    3.9	i	-7.9	-9.0	-8.3	8.8	-7.2	2.7
- CSc1ccc(CN(C)CC(=O)NCc2ccc(F)cc2)cc1
    -4.9	i	-5.0	-1.3	-1.9	-7.8	13.3	x
- CCOC(=O)c1cc(-c2ccccc2)n(CC(=O)N2CCCC2)c1C
    -5.2	i	7.4	5.5	-1.0	x	-4.5	x
- CC1C(c2ccccc2)=[N+]([O-])C2(CCCC2)N1O (stereo not given)
    6.0	i	3.8	-0.8	4.5	-29.1	-7.7	-11.4
- COc1ccc(-n2c(SCC(=O)Nc3cc(C(=O)O)ccc3C)nc3ccccc3c2=O)cc1Cl
    14.2	i	-0.6	-6.1	6.2	-87.3	13.1	-2.0
- COC(=O)c1ccccc1NC(=O)Nc1nnc(N2CCCCC2C)s1 (stereo not given)
    -2.5	i	1.9	2.5	1.3	x	-1.9	-11.9
- O=C(Nc1cccnc1)Nc1ccc(Br)cc1Cl
    -8.3	i	9.3	-1.3	-7.3	-18.7	9.4	-15.1
- CSc1ccccc1-c1cnc2cccnn12
    x	x	x	-2.7	3.5	2.5	x	-13.1
- CC1CCCCN1Cc1nc2c(c(=O)n(C)c(=O)n2C)n1CCCc1ccccc1 (stereo not given)
    5.0	i	x	x	x	x	x	-4.0
- O=C(CN1C(=O)NC2(CCc3ccccc32)C1=O)c1ccc(F)cc1 (stereo not given)
    1.9	i	x	-0.6	-0.4	5.8	x	-16.3
- CCCc1[nH]n(-c2ccc([N+](=O)[O-])cc2)c(=O)c1C(C)=NCc1ccncc1
    22.9	i	1.9	5.6	-21.8	10.3	14.7	-12.7
- FC(F)Oc1ccc(NC(=S)NCCc2ccccn2)cc1
    -2.8	i	5.1	1.8	-1.1	-19.0	-4.8	x
- C/C(=N\NC(=S)NC(C)C)c1cccc([N+](=O)[O-])c1
    15.0	i	-5.1	-4.8	-8.2	-26.3	4.6	-28.0
- COc1ccc(Cl)cc1S(=O)(=O)NC1CC(C)(C)NC(C)(C)C1
    -12.7	i	1.2	1.4	0.5	-14.9	8.6	x
- CCCCOc1ccc(C(=O)N2CCN(c3ccc(N4CCOCC4)nn3)CC2)cc1
    11.8	i	x	-5.8	-8.7	1.8	x	5.8
- Cc1cccn2c(=O)c(/C=N/O)c(N3CCOCC3)nc12
    -2.6	i	-2.0	1.0	4.1	19.4	-0.1	x
- CC1CC(C)CN(C(=O)CSc2nc(N)cc(=O)[nH]2)C1 (stereo not given)
    -10.8	i	-11.8	0.4	3.2	5.3	-5.0	x
- O=C(NCCC1CCCCN1S(=O)(=O)c1ccc(F)cc1)C(=O)NCc1ccncc1 (stereo not given)
    -1.3	i	x	-4.6	-5.4	x	x	-10.1
- C[C@]12c3[nH]c4ccccc4c3CCN1C(=O)C(CC(=O)NCc1cccc(C(F)(F)F)c1)C[C@@H]2C(=O)N1CCCCC1 (stereo not given in full)
    x	x	x	-23.8	-26.9	-45.3	x	-11.2
- CC1(C)OC(C(N)=O)C(C(N)=O)O1 (stereo not given)
    -4.6	i	-9.8	0.5	4.9	-93.3	-2.7	-21.2
- COc1cc(C2Nc3cc(C)c(C)cc3NC3=C2C(=O)CC(C)(C)C3)ccc1OC(C)=O (stereo not given)
    -12.7	x	1.9	-2.0	-0.5	10.5	-14.4	10.6
- CCN(CC)c1ccc2cc(C#N)c(=O)oc2c1
    -23.6	i	u	-112.1	1.3	-14.5	u	x
- COc1cccc(C(=O)NCc2ccccc2OC)c1
    -10.1	i	7.0	1.5	2.0	x	3.5	-2.8
- CC(C)=CC(=O)Nc1nnc(-c2ccccc2)s1
    -2.2	x	-0.9	2.2	1.2	x	21.9	-8.5
- O=C(CCSc1ccc(Cl)cc1)NCc1ccccn1
    -6.7	i	2.3	8.3	2.3	-0.7	-2.1	x
- COC(=O)c1cn(C(=O)c2cccc(C)c2)c2ccccc12
    3.4	i	-13.3	5.8	5.5	-8.9	12.8	0.3
- Cc1cc(NC2CCCC2)n2nc(C)c(-c3ccccc3)c2n1
    42.5	i	-6.0	1.7	-12.7	-15.6	-3.2	-8.2
- Cc1ccc(C(=O)Nc2ccon2)cc1S(=O)(=O)N1CCOCC1
    11.3	i	10.9	4.7	7.1	6.2	8.5	1.3
- Cc1ccc([N+](=O)[O-])cc1NC(=O)CN(C)CCOc1ccccc1
    3.4	i	3.7	1.7	-5.6	-4.4	5.9	-5.7
- O=C(Cc1ccccc1)N1CCc2ccccc21
    -0.6	i	-10.6	-2.1	-3.4	x	-8.8	-22.8
- Oc1c(Br)cc(/C=N/n2c(-c3ccccc3)n[nH]c2=S)c(O)c1Br
    2.4	i	-0.3	1.2	4.3	x	45.0	-20.4
- Cc1ccc(N(CC(=O)NC(C)(C)C)C(=O)CCC(=O)Nc2ccccn2)c(C)c1
    x	x	x	-2.9	-4.1	-4.4	x	10.2
- CC(C)/C=C(/C(=O)c1ccc(Cl)cc1Cl)n1cncn1
    20.3	i	-4.1	-3.4	-5.1	-1.0	11.1	x
- O=c1cc(C(F)(F)F)c2sc(N3CCCCC3)nc2[nH]1
    -0.2	i	17.7	3.6	0.2	x	48.4	-20.3
- CCOc1ccc(C2CC(c3cccc(OC)c3)Nc3nc(N)nn32)cc1 (stereo not given)
    11.5	i	0.9	-0.1	1.3	-12.5	-11.1	-18.6
- Cc1ccc(OCCCNCCO)c(Br)c1
    -9.5	i	-2.6	-2.1	-3.5	-13.0	3.3	-18.1
- O=c1c(C(c2ccc(Br)cc2)c2c(O)nc3n(c2=O)CCCS3)c(O)nc2n1CCCS2
    -7.1	i	-10.5	-2.8	-0.7	-2.5	22.1	-2.0
- O=C(Nc1c(C(=O)c2ccccc2)oc2ccccc12)c1cc(-c2ccccc2O)n[nH]1
    -13.5	i	-1.1	4.5	2.8	7.5	3.8	x
- O=C(O)C1C2CC3OC(=O)C1C3C2 (stereo not given)
    x	x	x	1.1	2.8	16.8	x	-14.9
